# Source: PubChem
# Mtb H37Rv – Mycobacterium tuberculosis H37Rv growth inhibition, cell based, confirmatory dose response (AID 1949); M. tuberculosis H37Rv growth inhibition; most inactive calls were filed without a number and no value below 0 was filed; inhibition, % at 10 µg/mL, or IC50 in µg/mL where a hit was titrated; 1.6% of 100,000 active;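 active = confirmed in a dose series; inconclusive = about 50% or more but not retested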;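 note: bacteria grown 7 days with compound before Alamar blue readout; 0% = untreated bacteria and 100% = reference antibiotic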
# Starred values were filed as active, the others as inactive; i = inactive; ? = inconclusive.
SMILES | Mtb H37Rv
Cn1c(SCC(=O)Nc2ccc(Cl)c(Cl)c2)nnc1-c1ccccc1 | i
S=C(NCC1OCCc2ccccc21)Nc1ccccc1 (stereo not given) | 0%
O=C(CC(O)(C(F)(F)F)C(F)(F)F)Nc1ccc(Cl)cc1Cl | 5.7µg/mL*
O=C(Nc1cccc([N+](=O)[O-])c1)c1ccc2ccccc2c1O | i
CCc1c(C)c2cc(Cl)c(O)c(CN(CC)CC)c2oc1=O | i
COc1cc(NC(=O)c2ccccc2[N+](=O)[O-])ccc1Cl | i
COc1ccc(NC(=O)CN(Cc2ccccc2C)S(=O)(=O)c2ccc(Cl)cc2)cc1OC | i
O=C(CSc1ncn(-c2ccccc2)n1)NC1CCCCC1 | i

# Next section.
SMILES | Mtb H37Rv
COc1cc(CNCc2cccnc2)ccc1OCC(=O)NC1CCCCC1 | 1%
Cc1ccc(C)c(OCC(=O)NCC(C)C)c1C | i
O=c1cc(-c2ccc3c(c2)OCO3)[nH][nH]1 | i
Cc1cc2c(cc1C)NC(CC(=O)NC(C)c1ccccc1)C(=O)N2 (stereo not given) | i
Cc1ccc(CN2C(=O)C(O)(CC(=O)c3ccccn3)c3cc(Cl)ccc32)cc1 (stereo not given) | 4%
COc1cccc(OC)c1C(=O)NC(=S)Nc1cc(C(C)(C)C)cc(Cl)c1O | i
O=C(Nc1ccc(I)cc1C(=O)N1CCCCCC1)c1cccnc1 | i
CCOC(=O)C1=C(C)NC(SCC(=O)NC23CC4CC(CC(C4)C2)C3)=C(C#N)C1c1cccs1 (stereo not given) | i

# Additional entries
SMILES | Mtb H37Rv
Cc1cc(NC(=O)CCS(=O)(=O)Cc2ccccc2)no1 | i
Cc1cccc(C)c1N1CCN(S(=O)(=O)c2ccc(I)cc2)CC1 | 4%
COc1ccc(-c2nc(-n3c(C)c(C(C)=O)c(C(C)=O)c3C)sc2C)cc1OC | i
Cc1cc2c(N)c(C(N)=O)sc2nc1-c1ccc(F)cc1 | 5%
O=C(OCc1ccc2c(c1)OCO2)c1ccc(F)cc1 | ?
Fc1ccc(NC(=S)NNC(=S)NCc2ccc(Cl)cc2)c(F)c1 | 2%
Cc1ccc(NS(=O)(=O)c2ccccc2F)cc1 | 6%
CCOCCCNC(=O)c1ccc(OC)cc1 | i

# Among those listed so far, these have a thiophene ring, fused or not.
SMILES | Mtb H37Rv
CCOC(=O)C1=C(C)NC(SCC(=O)NC23CC4CC(CC(C4)C2)C3)=C(C#N)C1c1cccs1 (stereo not given) | i
Cc1cc2c(N)c(C(N)=O)sc2nc1-c1ccc(F)cc1 | 5%

# Additional records follow.
SMILES | Mtb H37Rv
CC(C)(C)c1ccc(OCC(O)CN2CCN(Cc3ccc4c(c3)OCO4)CC2)cc1 (stereo not given) | ?
CCOC(=O)C1=C(C)NC(=O)NC1c1cc(C)cs1 (stereo not given) | i
Cc1ccc(OC(C)C(=O)Nc2sc3c(c2C(N)=O)CCCC3)cc1 (stereo not given) | i
COc1ccc(CNC(=O)CN(c2cc(Cl)ccc2Cl)S(C)(=O)=O)cc1 | i
CC12CN(NC=O)C3(C#N)CC1CCC23C (stereo not given) | 1%
COc1ccc(NC(=S)N2CCCC2)c(OC)c1 | i
COc1ccc([N+](=O)[O-])cc1NC(=O)CN(c1ccc(C)cc1)S(C)(=O)=O | i
CCOC(=O)c1ccc(NC(=O)NCCc2ccc(OC)c(OC)c2)cc1 | 0%

# Following part
SMILES | Mtb H37Rv
Cc1ccccc1/C=C\c1[nH]c(=O)[nH]c(=O)c1[N+](=O)[O-] | i
O=c1c(Cl)c(Cl)cnn1Cc1ccccc1Cl | 9.7µg/mL*
CC(C)(C)CC(=O)O/N=C(\N)c1ccncc1 | i
NC(=O)C1CCN(C(=O)c2ccc(Cl)cc2[N+](=O)[O-])CC1 | i
CCOC(=O)c1ccc2nc(C(Cl)(Cl)Cl)[nH]c(=O)c2c1 | i
Cc1cc(C)n(C(=O)c2cc(C)on2)n1 | 4%
CN(C)S(=O)(=O)N1CCN(c2ccc(F)cc2)CC1 | i
COc1ccccc1N(CC(=O)Nc1ccc(C(F)(F)F)cc1)S(C)(=O)=O | i

# (next part)
SMILES | Mtb H37Rv
CCn1nc(C)c(NC(=O)Nc2cccc(Cl)c2Cl)c1C | i
CSc1n[nH]c2nc3c(c(=O)n12)C1(CCCC1)Cc1ccccc1-3 | i
O=C(CSc1nnc(-c2ccccc2Cl)n1-c1ccccc1)Nc1ccccc1Cl | i
CCOC(=O)Nc1ccc(S(=O)(=O)NC2CC2)cc1 | i
COCCn1c(SCC(=O)NCc2ccccc2)nnc1-c1ccc(Cl)cc1 | i
Cc1ccc(C(=O)Nc2ccc(Cl)cn2)cc1S(=O)(=O)N1CCCCC1 | i
COc1ccc(Cl)cc1NC(=O)CSc1nnc(CSCc2ccccc2)n1C | i
C=CCn1c(SCC(=O)Nc2nc(-c3ccccc3)cs2)nnc1-c1ccccc1O | 14%

# Next results follow:
SMILES | Mtb H37Rv
Cc1cc(C=O)c(C)n1-c1ccccc1Cl | 1%
COc1ccccc1Cn1c(Cc2ccccc2)nc2ccccc21 | i
O=C1Nc2ccc(S(=O)(=O)Nc3ccc(N4CCOCC4)cc3)c3cccc1c23 | i
O=C(CSc1nc2ccccc2[nH]1)NC1CCCCCC1 | i
Cc1ccccc1OCCCC(=O)NC1CCCC1 | i
CCOC(=O)C1CCCN(S(=O)(=O)c2ccc(OC)c3ccccc23)C1 (stereo not given) | i
COc1ccc(Cc2nc(C)c(CC(N)=O)c(=O)[nH]2)cc1 | 1%
O=C(NC(=S)Nc1nc(-c2ccc3ccccc3c2)cs1)c1ccccc1 | i

# Structural class: the entries above with a CF3 group.
SMILES | Mtb H37Rv
O=C(CC(O)(C(F)(F)F)C(F)(F)F)Nc1ccc(Cl)cc1Cl | 5.7µg/mL*
COc1ccccc1N(CC(=O)Nc1ccc(C(F)(F)F)cc1)S(C)(=O)=O | i

# Following part
SMILES | Mtb H37Rv
COc1ccc(N2C(=O)NC(=O)/C(=C\c3cccc4ccccc34)C2=O)cc1 | i
COc1ccc(C(=O)Oc2ccccc2)cc1Br | i
Cc1cc(C)cc(C(=O)Nc2ccc3c(c2)Cc2ccccc2-3)c1 | i
CCOc1cc(-c2nc3ccccc3s2)cc(Br)c1OC | i
CN(C(=O)c1ccc(C(C)(C)C)cc1)C1CCS(=O)(=O)C1 (stereo not given) | i
Clc1ccc(Cc2nc(-c3ccccn3)no2)cc1 | i
COc1ccc(Cl)cc1N(CC(=O)Nc1ccc(NC(C)=O)cc1)S(=O)(=O)c1ccccc1 | i
CCN(C#N)c1nc(NC)nc(OC)n1 | i

# (cont.)
SMILES | Mtb H37Rv
CC(=O)NC(=S)Nc1ccc(NC(=O)c2ccc(OCc3ccccc3)cc2)cc1 | i
C(=N\c1nc(-c2ccccc2)cs1)/Nc1nc(-c2ccccc2)cs1 | i
CC1(C)Cc2ccccc2-c2nc3[nH][nH]c(=S)n3c(=O)c21 | i
Cc1ccccc1Nc1nnc(C)c2ccccc12 | i
COc1ccc(N2CC(C(=O)Nc3ccccc3C(F)(F)F)CC2=O)cc1 (stereo not given) | i
CCCCC(=O)Nc1cccc(NC(=O)COc2cccc(C)c2)c1 | 5%
O=C(Nc1ccc(C(F)(F)F)cc1)C1CCN(S(=O)(=O)c2ccccc2)CC1 | i
CCc1cc2c(C)cc(=O)oc2cc1OCC(=O)c1ccc(OC)cc1 | i

# Part of the list above, reformatted.
mol: CCc1cc2c(C)cc(=O)oc2cc1OCC(=O)c1ccc(OC)cc1
- Mtb H37Rv = i
mol: COc1ccc(N2CC(C(=O)Nc3ccccc3C(F)(F)F)CC2=O)cc1 (stereo not given)
- Mtb H37Rv = i

# More compounds follow.
SMILES | Mtb H37Rv
COCCSc1ccccc1C(=O)Nc1ccncc1 | i
O=C(CC1Nc2ccccc2NC1=O)Nc1ccc(SC(F)F)cc1 (stereo not given) | i
CN(C)CCNC(=O)c1cc(-c2ccccn2)nc2c(Cl)cccc12 | i
Cc1onc(-c2ccccc2Cl)c1C(=O)NCCC12CC3CC(CC(C3)C1)C2 | 3%
Cn1c(SCC(=O)Nc2nccs2)nnc1C12CC3CC(CC(C3)C1)C2 | i
CCOC(=O)c1ccc(NC(=O)Nc2ncccc2C)cc1 | 0%
COc1cc(C(=O)Nc2cc(C)c(OCC(=O)N3CCOCC3)c(C)c2)cc(OC)c1OC | i
CCn1c2ccccc2n2c(SC(C)C(=O)O)nnc12 (stereo not given) | i

# Going on with the list:
SMILES | Mtb H37Rv
O=C(Cc1ccc(Cl)cc1)NCC(=O)N1CCCC1 | i
CC(C)OC(=O)c1cccc(NC(=O)CSc2nnc(-c3ccc(Cl)cc3Cl)n2C)c1 | i
C=CCn1c(N)cc(=O)nc1SCC(=O)NC1CCCCC1 | i
O=C(O)CSc1ccc(Cc2ccc(SCC(=O)O)cc2)cc1 | i
CN1CCN(C(=O)c2ccccc2N(Cc2ccccc2)S(C)(=O)=O)CC1 | i
O=C(Nc1ccc(Br)cc1Cl)c1cnccn1 | i
COc1ccc2[nH]c(=O)c(-c3ccccc3)c(O)c2c1 | 40%
O=C1Nc2c(c(=O)[nH]c(=O)n2-c2ccccc2)C(C(F)(F)F)(C(F)(F)F)N1 | i

# (cont.)
SMILES | Mtb H37Rv
NC(=O)c1c(NC(=O)Nc2cccc(Cl)c2)sc2c1CCCC2 | 46%
O=C(O)C1CCCN1Cc1c[nH]c2ccccc12 (stereo not given) | i
CCC(=O)Nc1cc([N+](=O)[O-])ccc1OC | i
COc1ccc(C(=O)Nc2nc3ccccc3s2)cc1OC | ?
CCc1ccc(CC)c(S(=O)(=O)Nc2c(C)cc(C)cc2C)c1 | i
CCC(O)c1cc2c(cc1NC(=O)c1cccs1)OCCO2 (stereo not given) | i
CCSc1nc(-c2ccc(OC)cc2)c(C#N)c(=O)[nH]1 | i
C#CCOc1ccc(/C=C2/C(=O)NC(=O)N(c3ccccc3F)C2=O)cc1OCC | i

# Following part
SMILES | Mtb H37Rv
Cc1cc(Nc2ccccc2O)c2cccc(C)c2n1 | i
Cc1cc(NS(=O)(=O)c2ccc(NC(=O)c3ccoc3C)cc2)no1 | i
COc1ccccc1/C=C(/C#N)c1ccc(C#N)cc1 | 9%
O=[N+]([O-])c1ccc(S(=O)(=O)N2CCN(c3ccc(Cl)cc3)CC2)cc1 | i
COc1ccccc1C1CC(=O)Nc2cc(C)c(C)cc21 (stereo not given) | 2%
CC(NC(=S)NNC(=O)c1cccc(N(C)C)c1)c1ccccc1 (stereo not given) | i
COc1ccc(C(=O)NC(=S)Nc2nc(-c3cccc4ccccc34)cs2)cc1Cl | 6%
Cc1ccc(C(C)C)c(OCC(=O)Nc2ccc3oc(=O)ccc3c2)c1 | i

# Continued.
SMILES | Mtb H37Rv
CC(=O)Nc1cccc(NC(=O)c2cc(-c3ccc(C)o3)nc3ccccc23)c1 | 40%
CS(=O)(=O)N1CCC(C(=O)Nc2ccc(OCc3ccccc3)cc2)CC1 | i
CCOc1ccc(NC(=O)C(C)Oc2ccc(Cl)c(C)c2)cc1 (stereo not given) | 35%
CCOP(=S)(/C(C#N)=C(\O)Cc1ccccc1)c1ccccc1 (stereo not given) | i
C=CCNCCOc1cc(C(C)C)ccc1C | i
CC1(C)NC(=O)N(CCCCOc2ccc(Cl)cc2C=O)C1=O | i
COc1cccc(OC)c1C(=O)Nc1cccc(NC(=O)c2ccccc2)c1 | i
CC1CN(C(=O)C2CCCO2)CC(C)O1 (stereo not given) | i

# Next part:
SMILES | Mtb H37Rv
O=C(OCc1ccc(F)cc1)c1cc2ccccc2cc1O | ?
CCn1c(SCCOc2ccccc2F)nnc1-c1c[nH]c2ccccc12 | 36%
O=C(C1CCN(Cc2ccccc2Cl)CC1)N1CCN(Cc2ccc3c(c2)OCO3)CC1 | 11%
COc1ccc(Oc2ccc(-n3c(C)cc(C(=S)N4CCOCC4)c3C)cc2)cc1 | ?
Cc1cc(N2C(=O)C3C4CCC(C4)C3C2=O)no1 (stereo not given) | i
N#Cc1ccc(NC(=O)C2CC=CCC2C(=O)O)cc1 (stereo not given) | i
CC1=C(C(=O)Nc2ccccc2C)C(c2ccc(F)c(F)c2)C2=C(CC(C)(C)CC2=O)N1 (stereo not given) | i
COc1cc(C(=O)Nc2ccc(F)cc2)c(Br)c(OC)c1OC | 22%

# The results go on.
SMILES | Mtb H37Rv
Cc1cccc(NC(=S)NC2CCCC2)n1 | i
C=CCN1C(=O)NC2(CCCCC2)C1=O | 0%
COc1ccc(C(C)(C)C)cc1NC(=O)Nc1cccc(Cl)c1Cl | 6%
N#C/C(=C/c1ccc(-c2ccc([N+](=O)[O-])cc2)o1)C(=O)N1CCOCC1 | i
CCOC(=O)c1cnc2c(C)c(Cl)ccc2c1Nc1ccc(S(=O)(=O)Nc2ncccn2)cc1 | i
Cc1cc(C)nc(SCC(=O)Nc2ncc(Cc3cccc(C(F)(F)F)c3)s2)n1 | 1%
CC(=O)Nc1ccc(NC(=O)CN(c2cccc(Cl)c2)S(=O)(=O)c2ccccc2)cc1 | i
Cc1ccc(C)c(C2C(C#N)=C(N)N(c3cc([N+](=O)[O-])ccc3C)C3=C2C(=O)CCC3)c1 (stereo not given) | i

# Further results:
SMILES | Mtb H37Rv
COC(=O)CC(=O)CSc1nc2c(cc1C#N)CCC2 | i
Fc1ccc(NC2=NCCS2)cc1Cl | i
CC(=O)c1ccc(NC(=O)c2ccc(Br)o2)cc1 | i
C=CCn1c(Cc2csc(N)n2)nnc1SCc1ccc(C(=O)OC)cc1 | i
COc1ccc(S(=O)(=O)N2CCC(C)CC2)cc1Cl | i
Cc1sc2ncnc(N3CCN(C)CC3)c2c1-c1ccc(F)cc1 | i
Nc1cc(=O)[nH]c(SCc2ccccc2Cl)n1 | i
Cc1ccccc1N1C(=O)CC(c2cn(Cc3ccccc3)c3ccccc23)C1=O (stereo not given) | i

# (continued)
SMILES | Mtb H37Rv
COc1ccc(C(=O)Nc2ccc(-c3nc4ccccc4s3)cc2)cc1 | 6%
CCOc1ccc(OCc2cccc(C(=O)NC3CCCCCC3)c2)cc1 | i
O=C(CSc1ccc(Cl)cc1)Nc1cccc(NC(=O)c2ccccc2)c1 | 1%
O=C(NCc1ccc(Cl)c(Cl)c1)Nc1ccc(Cl)c(Cl)c1 | i
Cc1cc(=O)oc2cc(NC(=S)NNC(=O)c3ccc(Cl)s3)ccc12 | i
CCOC(=O)c1c(C)[nH]c2ccc(O)cc12 | 3%
CCOCCc1nnc(NC(=O)Cc2ccccc2)s1 | i

# Only part of the results is shown; the hit share may differ from the screen's.
